H5N1 CPE: antiviral screen in MDCK cells, H5N1 avian flu; cytopathic effect, luminescence, 72 h; stronger effect = higher value; no value below 0 was filed and about half of the inactive calls have no number; reference of the scale not given here; 0.07% of 96,000 active; inhibition, % at 50 µM; in the data active = inhibition above about 25%
* hit, by the source's call; i = inactive. Not all compounds are listed (hit frequency here may not be typical).

A first look (2 entries):
Compound	H5N1 CPE
O=C(NC1CCCC1)C1CCCN1C(=O)Nc1ccccc1Cl (stereo not drawn)	0.2
CC(=O)N1CCCc2cc(S(=O)(=O)Nc3ccc4c(c3)OCO4)ccc21	0.8

The list itself, repeating the preview:
Compound	H5N1 CPE
O=C(NC1CCCC1)C1CCCN1C(=O)Nc1ccccc1Cl (stereo not drawn)	0.2
CC(=O)N1CCCc2cc(S(=O)(=O)Nc3ccc4c(c3)OCO4)ccc21	0.8
CC(C)c1nnc(NC(=O)CCS(=O)(=O)c2nc(-c3cccs3)cc(C(F)(F)F)n2)s1	i
CC(=O)c1cccc(NC(=O)NC(C)C2CCCO2)c1 (stereo not drawn)	0.6
O=C(O)C1CC(c2ccc(F)cc2)=NO1 (stereo not drawn)	i
Cc1cccnc1-n1c(C)nc2ccccc2c1=O	i
Cc1ccc(NC(=S)N2CCN(CCN3C(=O)c4cccc5cccc(c45)C3=O)CC2)cc1	0.2
O=C(CN1C(=O)COc2ccccc21)NCCCN1CCN(Cc2ccccc2)CC1	0.8
O=C(NC1CCCC1)c1ccc(COCC(F)(F)F)o1	i
O=S(=O)(c1cc(Cl)cc(Cl)c1)N1CCCC1c1nc2ccccc2s1 (stereo not drawn)	i
CNC(=O)c1ccc(N(Cc2ccccc2C)S(C)(=O)=O)cc1	0.3
CCN1CCN(Cc2nc(N)nc(Nc3ccc(C)c(C)c3)n2)CC1	0.3
O=C(C1CCC(CNS(=O)(=O)c2cccs2)CC1)N1CCCCC1 (stereo not drawn)	i
COc1ccc(OC)c(CNC(=O)CCNC(=O)Cn2ccc3ccccc3c2=O)c1	i
CC12CN3CC(C)(CN(C1)C3c1cc(Br)ccc1O)C2=O (stereo not drawn)	1.1
CCOC(=O)N1CCN(Cc2nc3c(c(=O)[nH]c(=O)n3C)n2CCCc2ccccc2)CC1	1.9
CCC(=O)Nc1cc(C(=O)N2CCC3(CC2)OCCO3)ccc1S(=O)(=O)c1ccc(C)cc1	0.7
CN(C)P(=NC(=O)COc1ccc(Cl)cc1Cl)(N(C)C)N(C)C	i
O=C(Nc1sc2c(c1C(=O)O)CCCC2)c1cccs1	0.7
CC(C)CCOc1ccc(Cl)cc1CN1CCOCC1	1.0

New compounds follow:
Compound	H5N1 CPE
COCCCNC(=O)C(C#N)c1nc2ccccc2nc1N1CCN(Cc2ccccc2)CC1 (stereo not drawn)	0.1
CCC(c1nnnn1Cc1ccco1)N(CCc1ccccc1)Cc1cc2cccc(C)c2[nH]c1=O (stereo not drawn)	0.7
CC(Nc1cc(=O)n(C)c(=O)n1C)c1ccccc1 (stereo not drawn)	i
O=C(CCSCc1ccccc1Cl)N1CCN(c2ccccn2)CC1	i
O=C1C=C(OCc2ccccc2)CN1	0.2
CCC(=O)N1CCN(c2ccccc2NC(=O)Cc2ccccc2)CC1	0.8
Fc1ccccc1N1CCN(Cc2c(F)cccc2F)CC1	i
O=C(O)COc1ccc(S(=O)(=O)NCCc2ccccc2)cc1	0.6
COc1ccc(CCn2nnnc2C(CC(C)C)N2CCN(c3ncccn3)CC2)cc1OC (stereo not drawn)	i
Cc1ccccc1-c1noc(C23CC4CC(CC(C4)C2)C3)n1	i
Cc1noc(C)c1Cc1ccc(O)cc1	0.5
CCOC(=O)c1ccc(NC(=O)c2c(O)[nH]c(=O)[nH]c2=O)cc1	0.2
COC(=O)C1CC(O)CN1C(=O)c1ccco1 (stereo not drawn)	0.2
COc1ccc(OC)c2c1sc(=NC(=O)C(C)C)n2C	0.2
O=C(NCc1ccco1)C1CCCN(S(=O)(=O)c2cccc3cccnc23)C1 (stereo not drawn)	3.8
C=CCn1c(SCc2ccc3nonc3c2)nnc1-c1cccs1	3.0
CCOc1ccc(N2C(=O)CC(N3CCN(c4ccccc4F)CC3)C2=O)cc1 (stereo not drawn)	i
Cc1nc(N[C@@H](Cc2ccccc2)C(=O)O)c2oc3ccccc3c2n1	i
CCC(=O)Nc1cccc(NC(=S)NC(=O)c2ccccc2Cl)c1	i
COc1ccc(OC)c(NS(=O)(=O)c2ccc(NC(C)=O)cc2)c1	0.8

Additional results
Compound	H5N1 CPE
CC(C)n1c(=O)[nH]c2ccccc21	i
CN(Cc1ccccc1)c1nc2c(c(=O)[nH]c(=O)n2C)n1Cc1ccccc1Cl	1.0
COCCNC(=O)c1onc(CSc2ccccc2)c1C(=O)O	0.2
CC(C)(C)c1nn(-c2ccccc2)c2[nH]c(=O)c(CNCc3ccco3)cc12	i
Cc1ccccc1N(CC(=O)Nc1ccc(F)cc1)S(C)(=O)=O	3.3
CCOC(=O)NCC(C#CCN(CC)CC)N(CC)CC (stereo not drawn)	1.7
Cc1cccc(N(C)C(=O)c2coc(=O)c3ccccc23)c1	0.1
CC(C)OCCCNS(=O)(=O)c1ccc2c(c1)OCCO2	1.6
CN=Cc1c(NC)nc2c(C)cccn2c1=O	0.1
Cc1nn(Cc2ccccc2Cl)c(C)c1NC(=O)/C=C/c1cnn(C)c1	i
COc1cccc(C2C(C(=O)c3cc4cccc(OC)c4o3)=C(O)C(=O)N2c2cc(C)on2)c1OC (stereo not drawn)	1.6
C=CCN1C(=NC(=O)CCC)SC2CS(=O)(=O)CC21 (stereo not drawn)	i
O=C(NC1CCCC1)c1c[nH]c2ccc(F)cc2c1=O	i
Fc1ccc(-c2ccnc3nc(N4CCOCC4)nn23)cc1	0.6
COc1cccc(OCCn2c(C)c(/C=N/n3cnnc3)c3ccccc32)c1	i
CC(NC(=O)COc1cc(=O)n(C)c2ccccc12)c1ccc2c(c1)OCCO2 (stereo not drawn)	1.4
CCn1ncc(C2=NOC(C(=O)NCc3ccc(Cl)cc3)C2)c1C (stereo not drawn)	i
COCCC(=O)N(Cc1ccc2c(c1)OCO2)C(C(=O)NC1CCCCC1)c1ccncc1 (stereo not drawn)	i
CCOC(=O)c1sc(NC(=O)CSc2nc3c(cc2C#N)CCCCCC3)c(C#N)c1C	0.1
COC(=O)C1=C(C)N=C2SC(C#N)=C(N)N2C1c1cccc(OC)c1 (stereo not drawn)	i

Shown as labelled records: entries from further up
C=CCN1C(=NC(=O)CCC)SC2CS(=O)(=O)CC21 (stereo not drawn)
  H5N1 CPE: i

Cc1nn(Cc2ccccc2Cl)c(C)c1NC(=O)/C=C/c1cnn(C)c1
  H5N1 CPE: i

COc1cccc(OCCn2c(C)c(/C=N/n3cnnc3)c3ccccc32)c1
  H5N1 CPE: i

CN=Cc1c(NC)nc2c(C)cccn2c1=O
  H5N1 CPE: 0.1

Remaining list, next part:
Compound	H5N1 CPE
O=C1Nc2c(c(=O)[nH]c(=O)n2-c2ccccc2)C1(Nc1ncccn1)C(F)(F)F (stereo not drawn)	0.4
Cc1cc(S(=O)(=O)NCc2cccnc2)ccc1-n1cnnn1	1.9
COc1cccc(-c2ccc(C#N)c(SCC(=O)NCCc3cccc(Cl)c3)n2)c1	2.9
Cc1cccc(C(=O)Nc2nnc(-c3ccc(C(C)(C)C)cc3)s2)c1	0.0
C=CCOC(=O)C1C(=O)CC(C)(O)C(C(=O)OCC=C)C1c1ccc(OC)cc1 (stereo not drawn)	2.5
C[N+]1(CCOc2ccc([N+](=O)[O-])cc2)CCOCC1	0.8
CCCCS(=O)(=O)Nc1ccc(C(=O)NCC2CCCO2)cc1 (stereo not drawn)	i
Cc1onc(-c2ccccc2Cl)c1C(=O)NCc1cccnc1	i
COc1ccccc1C1C(C(N)=O)=C(C)Nc2nc(-c3ccc(Cl)cc3)nn21 (stereo not drawn)	i
Cc1cc(C)cc(C(=O)N(NC(=O)Nc2ccc(Cl)cc2)C(C)(C)C)c1	i
COc1ccc(S(=O)(=O)NCc2ccc3c(c2)OCO3)cc1C	i
CCOC(=O)C1CCN(C(c2cccnc2)c2c(NC(=O)c3ccco3)sc(C)c2C)CC1 (stereo not drawn)	3.5
Cc1cc(N(CN2CCCC2=O)C(=O)c2ccc(F)cc2)no1	0.3
C1CCN(c2nc3nonc3nc2N2CCCCC2)CC1	2.2
CCOC(=O)NC(=O)COC(=O)Cc1cc(OC)c(OC)c(OC)c1	i
COc1ccc(-n2c(C)nc3cc(C(=O)N4CCC5(CC4)OCCO5)ccc32)cc1	i
CN1CCN(C(=S)NC(=O)/C=C/c2cccc3ccccc23)CC1	i
Cc1c(-c2ccco2)[n+](=O)c2c(n1[O-])CCCCC2	0.2
CC(C)=CC(=O)Nc1nnc(C(C)C)s1	0.5
COC(=O)Nc1c(-c2ccccc2)nc2ccc(C)cn12	i

New compounds follow
Compound	H5N1 CPE
Cc1cccc(-n2ccnc2SCC(=O)Nc2nnc(C)s2)c1	0.4
CCCCn1c(CCC(=O)O)ccc1-c1cccs1	0.9
CN(CC(=O)O)Cc1nc2ccccc2[nH]1	i
O=C(C1CC1)N1CCc2cc(Br)cc(S(=O)(=O)NC3CCCCC3)c21	0.8
Cc1occc1C(=O)n1cnc2ccccc21	0.3
O=S1(=O)CCN2C(c3ccco3)=CSC2=N1	1.7
Cc1oc(-c2cccc(Cl)c2)nc1CN1CCCC(C(=O)NC(C)c2ccc3c(c2)OCCO3)C1 (stereo not drawn)	3.3
O=C(C1CCN(c2nnc(-n3cccc3)s2)CC1)N1CCN(Cc2ccc3c(c2)OCO3)CC1	i
O=[N+]([O-])c1ccc(-c2cc(-c3ccc(Cl)cc3)n[nH]2)cc1	i
CCN(CC)CCNC(=O)CCCCCn1c(=O)[nH]c2cc(C(=O)OC)ccc2c1=O	0.8
COc1ccc(NC(=O)CCCn2c(=O)[nH]c3ccccc3c2=O)cc1	1.3
O=C(CN1CCN(C(=O)c2ccco2)CC1)Nc1c2c(nc3c1CCC3)CCCC2	i
CN(CCc1ccccn1)C(=O)c1nn2c(C(F)(F)F)cc(-c3ccco3)nc2c1Cl	4.4
C=CCn1c(SCC(=O)Nc2c(C)n(C)n(-c3ccccc3)c2=O)nc2sc(C)c(C)c2c1=O	1.1
CCCCN1C(=O)C2C(C(=O)Nc3cccc(OC)c3)C3C=CC2(O3)C1C(=O)NC1CCCCC1C (stereo not drawn)	i
CCOCCCNCc1ccc(OC)c(OC)c1	0.5
C=CCN1CC(c2nc3ccccc3n2Cc2cccc3ccccc23)CC1=O (stereo not drawn)	0.1
O=C(CCNS(=O)(=O)c1ccc(Br)s1)N1CCN(c2ccccc2)CC1	4.1
CCc1cc2c(=O)c(-c3nc4ccccc4n3C)c(C)oc2c(CN2CCOCC2)c1O	0.5
O=C(CCCN1C(=O)C2C3C=CC(C3)C2C1=O)N1CCN(c2ccccc2)CC1 (stereo not drawn)	1.0

Looked up above:
C=CCn1c(SCC(=O)Nc2c(C)n(C)n(-c3ccccc3)c2=O)nc2sc(C)c(C)c2c1=O in H5N1 CPE: 1.1
CN(CCc1ccccn1)C(=O)c1nn2c(C(F)(F)F)cc(-c3ccco3)nc2c1Cl in H5N1 CPE: 4.4

The listing continues.
Compound	H5N1 CPE
COc1cc(C(=O)Nc2ccc3c(c2)OCCO3)ccc1OC(C)C	i
NCCCCCc1nnc(SCC(=O)c2ccc(Cl)cc2)o1	0.8
COc1cc(/C=C/C(=O)NCc2cccnc2)cc(OC)c1OC	i
O=C(NS(=O)(=O)c1ccccc1)c1ccccc1O	0.6
CSc1ncccc1C(=O)OCC(=O)N(CC(C)C)C1CCS(=O)(=O)C1 (stereo not drawn)	i
CCCCNC(=O)Nc1c(C(=O)OCC)[nH]c2ccccc12	0.1
CCOC(=O)N1CCC(NC(=O)c2cc(S(=O)(=O)N(CC)CC)ccc2F)CC1	i
c1ccc(-c2noc(-c3ccc4c(c3)OCO4)n2)nc1	i
CC(C)C(NC(=O)C1CCCCC1)C(=O)Nc1ccncc1 (stereo not drawn)	0.5
CC(NC(=O)CSc1nc2ccccc2c(=O)n1CCCO)c1ccccc1 (stereo not drawn)	1.0
COc1ccc(CC(=O)N(Cc2cc3cc(OC)ccc3[nH]c2=O)C(C)C)cc1	i
NNc1nnc(-c2ccccc2)c(-c2ccccc2)n1	1.4
Cn1c2ccccc2c2cnn(CC(=O)O)c(=O)c21	i
O=C(Nc1ccccc1)c1cnc[nH]1	0.5
Cc1nc(CS(=O)(=O)c2ccc(Cl)cc2)cc(Sc2ccc(Cl)cc2)n1	0.4
CCCCC(=O)Nc1cc(C(=O)NCCc2ccccc2)ccc1Cl	0.2
CCc1ccccc1NC(=O)c1cc(C2CC2)on1	0.3
CCCCc1nn(-c2cc(Cl)ccc2OC)c2c1C(=O)CC(C)(C)C2	i
CCC(=O)N1CCCc2cc(S(=O)(=O)N3CCCc4ccccc43)ccc21	2.1
O=C(C1CCCO1)N1CCN(Cc2c(O)ccc3ccccc23)CC1 (stereo not drawn)	i

Following part
Compound	H5N1 CPE
CCOc1ccc(N(CC(=O)NC2CCCCC2)S(=O)(=O)c2c(C)noc2C)cc1	1.1
CCCc1nnc(NC(=O)CNc2ccc(F)cc2)s1	0.2
O=C(Nc1ccc(S(=O)(=O)N2CCOCC2)cc1)c1ccc(Br)o1	i
COc1ccc(OC)c(-n2c(O)c(C=NCc3ccc4c(c3)OCO4)c(=O)[nH]c2=O)c1	i
Cc1cc(NC(=O)CCCC(=O)N(CC(=O)NCCc2ccccc2)Cc2ccc(F)cc2)no1	i
O=C(NCCc1ccccc1)c1cnc2ccccn2c1=O	0.2
CCCn1c(SCC(=O)Nc2ccc3c(c2)OCO3)nc2c1c(=O)n(C)c(=O)n2C	0.0
COc1cccc(-c2nnn(CC(=O)NC3CCCC3)n2)c1OC	0.6
